Assay outcomes: PubChem BioAssay, ICCB-Longwood Screening Facility, Harvard Medical School
Ba CapD inh: Bacillus anthracis CapD inhibitors, primary screen, biochemical, fluorescence intensity; purified CapD enzyme, fluorescence intensity read-out; hits give low values; some hits fall short of the stated cut; z-score (no concentration beside the values); CapD gamma-glutamyltranspeptidase (Bacillus anthracis Ames Ancestor); hit rate 0.23% among 140,000; AID 492967, 2010;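 active = z-score under -4 in either of two replicates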;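 also: stock transfer was 100 nL into about 40 µL; score is relative to mean and spread of the plate; one replicate is shown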
AID504770: growth inhibition of E. coli YBA685, primary screen, V. cholerae RctB inhibitors; hit rate 0.27% among 130,000; E. coli YBA685 rctB-dependent plasmid, OD600 growth, 3 h; hits give low values; AID 504770, 2011; z-score (concentration not given with the values);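 active = z-score under -2 on both plates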;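 also: wells of about 30 µL received 100 nL stock; score is relative to mean and SD of the test wells; the first replicate is given; strong numbers were not always called active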
* marks the source's active call; other numbers are inactive results; · = no result given. A portion of the library, so the mix of outcomes need not match the whole.

Screens in order – Ba CapD inh | AID504770
CCN1C(=O)C(=Cc2ccc(-c3ccccc3F)o2)C(=O)N(CC)C1=S
→ 2.6 | 0.25
CN1C(=O)c2ccccc2Sc2ccc(C(=O)O)cc21
→ 0.6 | -0.15
CCOC(=O)C1=C(O)CN=C1C
→ 1.4 | 0.6
CCOC(=O)c1sc2nc(C)nc(NCCCOC)c2c1C
→ · | -0.15
O=C(O)/C=C/C(=O)N1CCc2ccccc21
→ -0.63 | -0.85
CC(C)n1cc(NC(=O)c2cc(-c3ccccc3)on2)cn1
→ -0.06 | -1.7
COc1ccc2c(c1)OC1(C)CC2/C(=C(\C)O)C(=O)N1 (centres undefined)
→ 0.14 | ·
CC1SC(NC(=O)COc2ccccc2)=NC1=O (centres undefined)
→ · | -0.7
CC1=C(C(=O)OCc2ccc3c(c2)OCO3)C(c2cc3c(cc2Br)OCO3)NC(=O)N1 (centres undefined)
→ -0.1 | ·
COc1ccc(/C=N/NC(=O)c2ccc([N+](=O)[O-])cc2Cl)c(OC)c1C
→ -0.055 | ·
Cc1cc(NC(=O)c2cnc3sccn3c2=O)no1
→ -0.15 | -0.5
Cc1ccc(NC(=O)OC2CCCCCCC2)cc1
→ · | 0.75
Cc1ccc(S(=O)(=O)NC(=O)Nc2ccccc2-c2cnn(-c3ccc(S(C)(=O)=O)cc3)c2)cc1
→ 0.33 | ·
CN1CCN(CCCC(=O)c2ccc(F)cc2)CC1
→ · | 1
O=C(CCc1ccccc1)NCc1ccccc1
→ 0.2 | 1.2

Molecules from the list above that contain an aryl methoxy group (2):
Screens in order – Ba CapD inh | AID504770
COc1ccc2c(c1)OC1(C)CC2/C(=C(\C)O)C(=O)N1 (centres undefined)
→ 0.14 | ·
COc1ccc(/C=N/NC(=O)c2ccc([N+](=O)[O-])cc2Cl)c(OC)c1C
→ -0.055 | ·

Next part:
Screens in order – Ba CapD inh | AID504770
O=C(CCC(=O)c1ccccc1)NCc1cc(C(F)(F)F)cc(C(F)(F)F)c1
→ -1.4 | ·
O=C(N/N=C/c1ccccc1O)c1ccc(OCc2c(F)cccc2Cl)cc1
→ -0.66 | ·
CSc1ncc(C(=O)N/N=C/c2cccc3c2OCO3)n1C
→ 7.3 | ·
NS(=O)(=O)c1ccc(CNC(=O)COc2ccc(Cl)cc2)cc1
→ -0.04 | -0.55
COc1ccc(O)c(C(=O)OC(C(=O)N(C)C)c2ccccc2)c1 (centres undefined)
→ · | -0.7
O=C1C2C3C=CC(C3)C2C(=O)N1c1ccc2c(c1)OCO2 (centres undefined)
→ · | -0.2
COc1cc(O)c(/C=N/NC(=O)Cc2c[nH]c3ccccc23)c(OC)c1
→ -1.2 | ·
O=C(Cc1ccccc1)NCc1ccc2[nH]c3c(c2c1)CCCC3
→ 0.54 | 0.35
CC(=O)N1CCc2ccc(NC3CCN(C)CC3)cc21
→ -0.47 | ·
CC1=C(C(=O)N2CCOCC2)C(c2ccc(Cl)c([N+](=O)[O-])c2)C2=C(CC(C)(C)CC2=O)N1 (centres undefined)
→ -0.39 | ·
Clc1ccc(OCc2cn3ccccc3n2)c2ncccc12
→ 26 | 0.9
CCOC(=O)CSC1=C(C#N)C(c2cccc(Cl)c2)CC(=O)N1 (centres undefined)
→ 0.56 | 1.4
O=C(c1ccccc1)N1CCOc2ccccc21
→ 0.05 | 0.35
CC(=O)Nc1cccc(OCc2cc(=O)n3nc(CC(C)C)sc3n2)c1
→ 0.58 | -1.1
CCNc1nc(NC(C)C)nc(Oc2ccc(/C=N/O)cc2)n1
→ -1.1 | 1.1
O=C1c2ccccc2C(=O)N1/N=C/c1cn(-c2ccccc2)nc1-c1cccs1
→ · | -0.25
CN(C)CCCNC(=O)c1cc(C(=O)c2ccc(C(C)(C)C)cc2)c[nH]1
→ -0.19 | ·
CN(C)c1nc2ccc(O)cc2s1
→ 0.26 | 0.3
CCOC(=O)c1cc(C#N)c(N2CCN(C(=O)CCCCCNC(=O)OCc3ccccc3)CC2)nc1C(F)(F)F
→ 0.72 | ·
COC(=O)C1=C(C)NC(=O)CC1C(=O)NCc1ccccc1 (centres undefined)
→ · | -0.95
O/N=C/C(=N/O)c1ccc(Br)cc1
→ -0.1 | -1.2
C#CCSc1nnc2n(CC)c(=O)c3c(n12)-c1ccccc1CC31CCCCC1
→ 0.3 | 1.9
CNC(=O)Cn1c(-c2cccs2)cc2ccccc21
→ 111 | -0.55
COc1cccc(C(=O)Nc2ccc(-c3ccc4nnc(C)n4n3)cc2)c1OC
→ · | 0.15
CC1=C(C(=O)Nc2ccc(C(=O)NCCCN3CCCCC3)cc2)SCCO1
→ -0.97 | 0.15
Cc1oc2ccc(NS(=O)(=O)c3cc(Cl)ccc3Cl)cc2c1C(=O)OC(C)C
→ -0.065 | ·
CCC(=O)Nc1ccccc1N1CCN(c2ccc(F)cc2)CC1
→ · | 0.8
NC(=S)NNc1ccc(S(N)(=O)=O)cc1
→ 0.81 | -0.5
O=C(c1ccccc1)N1CCCCC(S(=O)(=O)c2ccccc2)C1=O (centres undefined)
→ · | 2.2
O=C1C=C(NCCN2CCOCC2)CC(c2ccccc2)C1 (centres undefined)
→ 0.29 | -0.5

Molecules from the list above with a cyano group (two):
Screens in order – Ba CapD inh | AID504770
CCOC(=O)CSC1=C(C#N)C(c2cccc(Cl)c2)CC(=O)N1 (centres undefined)
→ 0.56 | 1.4
CCOC(=O)c1cc(C#N)c(N2CCN(C(=O)CCCCCNC(=O)OCc3ccccc3)CC2)nc1C(F)(F)F
→ 0.72 | ·

Next part.
Screens in order – Ba CapD inh | AID504770
O=C(O)COc1cc(OCC(=O)O)c2c(-c3ccccc3)cc(=O)oc2c1
→ · | 0.15
CCOc1ccc(NC(=S)C(C#N)=C2N(C)c3ccccc3N2C)cc1
→ · | -0.5
O=c1c(F)cn(C2CCCO2)c(=O)n1Cc1ccc(Cl)cc1 (centres undefined)
→ -0.56 | -0.3
O=C(O)c1ccc(Nc2nc(-c3ccc([N+](=O)[O-])cc3)nc3ccccc23)cc1
→ 0.04 | ·
CC(C)CN(CC(C)C)S(=O)(=O)c1csc(C(N)=O)c1
→ -0.35 | -0.25
CC1CCCC(NC(=O)CNC(=S)N(Cc2ccccc2)Cc2cccs2)C1C (centres undefined)
→ -1.3 | 1.5
CC1C(=O)CCC1(C(=O)O)c1ccccc1 (centres undefined)
→ 0.035 | 0.9
C=C(C)CNC(=O)c1cc2cccc3c2n(c1=O)CCC3
→ 16 | ·
CCc1nnc(SCC(=O)Nc2ccc3c(c2)OCO3)n1CC1CCCO1 (centres undefined)
→ · | -0.75
CCNC(=O)CC1C(=O)N(c2ccc(OC)cc2)C(=O)N1CCOC (centres undefined)
→ 0.09 | -0.6
COCC(C)NC(=O)c1cc(-c2ccco2)on1 (centres undefined)
→ 0.1 | -0.55
Cn1ccnc1SCc1nccn1Cc1ccc(Cl)cc1
→ -0.26 | ·
Cc1ccc(C=Nc2ccc3ccccc3c2)o1
→ 42 | 0.4
CCC(C)C(=O)Nc1ccc(Cl)cc1 (centres undefined)
→ -0.36 | -0.25
COc1ccc2ccccc2c1CN1CCN(C(=O)OCCc2scnc2C)CC1
→ 0.79 | ·
O=C(NCc1nc2ccccc2[nH]1)OCc1ccc2ccccc2c1
→ 2.1 | ·
COC(Cn1c(-c2cccc(S(=O)(=O)N(C)C)c2)n[nH]c1=S)OC
→ · | -0.55
CCOC(=O)C1CCCN(Cc2ccc(Cl)cc2)C1 (centres undefined)
→ 0.15 | -0.55
COC(=O)Cn1cnc2scc(-c3ccc(OC)c(OC)c3)c2c1=O
→ 0.43 | -0.8
CC1CN(C(=O)COC(=O)c2cccc(Cl)c2)CC(C)O1 (centres undefined)
→ 6.7 | -0.2
Cc1ccsc1-c1nc(CSCC(=O)N2CCC3(CC2)OCCO3)c(C)o1
→ -0.21 | -0.7
O=C(O)CCC(=O)N1N=C(c2ccc(Br)cc2)CC1c1ccccc1 (centres undefined)
→ 3.4 | ·
Cc1cc(C(=O)Nc2ccc(S(N)(=O)=O)cc2)no1
→ -0.77 | 2
COc1ccc(-c2nnc3s/c(=C\c4ccco4)c(=O)n23)cc1OC
→ 34 | -1.3
O=C(CSc1ncccn1)NC1CC2CCC1C2 (centres undefined)
→ · | -1.6
Clc1ccc(-c2nc(N3CCC4(CC3)OCCO4)c3ccccc3n2)cc1
→ 0.48 | 0.15
O=C1c2ccccc2-c2nn(C(=O)c3ccc(Br)s3)c3cccc1c23
→ · | 0.2
O=C(NC(=S)Nc1ccccn1)c1ccccc1
→ -0.45 | ·
Cc1cc(C)nc(N2CCN(C(=O)c3ccc(C(C)(C)C)cc3)CC2)n1
→ 0.14 | ·
Cc1ccc(S(C)(=O)=N/C=C2\C(=O)c3sccc3N(C)S2(=O)=O)cc1 (centres undefined)
→ 0.61 | 0.2

Later entries.
compound	Ba CapD inh	AID504770
CC(CCOC(=O)NC(Cc1c[nH]c2ccccc12)C(=O)OCc1ccccc1)c1ccccc1 (centres undefined)	0.1	·
Cc1c(Cl)cccc1NS(=O)(=O)c1cccc2nsnc12	-0.52	·
CCOCc1c(C(=O)OCCOc2ccccc2)oc2ccccc12	·	-0.65
COc1ccc(C2=Nc3ccccc3N=C(c3ccc(C)cc3O)C2)cc1	0.36	·
NS(=O)(=O)c1ccc(NC(=O)CCC(=O)Nc2ccc(S(N)(=O)=O)cc2)cc1	0.23	-0.25
NC(=O)c1c(NC(=O)c2ccccc2)sc2c1CCCC2	1.1	0
CC(C)c1cccc(C(C)C)c1O	-0.26	·
Cc1cccc(C(=O)c2ccccc2C(=O)O)c1	0.08	·
O=C(N/N=C/c1ccc(C(F)(F)F)cc1F)c1ccccc1Br	0.07	·
CCCCOC(=O)CSc1nc(N)c(C#N)c(-c2ccccc2Cl)c1C#N	19	·
CCOC(=O)c1ccc(N=C2SC(C(=O)Nc3ccccc3Cl)CC(=O)N2C)cc1 (centres undefined)	0.005	·
O=c1ccc(-c2n[nH]c(=S)n2-c2ccc(F)c(Cl)c2)n[nH]1	-1.8	-0.3
Cc1cc(NS(=O)(=O)c2ccc3c(c2)OCCO3)no1	-0.02	0.05
Cn1c(C(C#N)C(=O)c2ccccc2Br)nc2ccccc21 (centres undefined)	0.31	0.35
CC1CCCCC1NC(=O)CN1CCC(NC(=O)c2cccc(F)c2)CC1 (centres undefined)	·	-0.65
CC1(C)c2ssc(=S)c2-c2ccccc2N1C(=O)CN1C(=O)c2ccccc2C1=O	-0.26	·

Complete entries from above.
Entry for `O=c1ccc(-c2n[nH]c(=S)n2-c2ccc(F)c(Cl)c2)n[nH]1` → Ba CapD inh: -1.8; AID504770: -0.3
Entry for `Cc1cc(NS(=O)(=O)c2ccc3c(c2)OCCO3)no1` → Ba CapD inh: -0.02; AID504770: 0.05

The list goes on:
compound	Ba CapD inh	AID504770
CC(=O)N1C(=O)/C(=C2\SC(=Nc3ccc(Br)cc3)NC2=O)c2ccccc21	-0.64	·
O=C(Nn1c(-c2ccccc2F)nc2ccccc2c1=O)c1cc2cc(Br)ccc2oc1=O	-1.3	·
Cc1ccc(OCCNC(=O)c2ccc(C(C)(C)C)cc2)cc1	-0.24	0.55
CCOC(=O)c1[nH]c2c(OC)cc(OC)cc2c1CCN1C(=O)c2ccccc2C1=O	0.36	·
CCCc1ccc(NC(=S)NC(=O)c2ccccc2)cc1	0.22	·
O=C(CCn1cccc1)NCCN1CCCCCC1	0.65	-0.9
CC1(C)Cc2ccccc2-c2nnc(SCC(N)=O)n21	·	-0.5
COc1ccc(S(=O)(=O)N2CCN(c3nc(-c4ccc(Cl)cc4)c(S(C)(=O)=O)cc3C#N)CC2)cc1	1.5	·
Cc1cccn2c(=O)c(/C=C3/SC(=S)N(Cc4ccco4)C3=O)c(N(C)Cc3ccccc3)nc12	0.21	·
CN(C)c1ccc(NC(=O)CSc2nc(N)c(C(=O)Nc3nccs3)s2)cc1	0.005	·
CC(=O)Nc1n[nH]c(-c2ccc(C)cc2)n1	·	-0.45
CC(=O)NNc1nc(Cl)nc(N(C)C)n1	·	-0.3
C=CCn1c(-c2ccc(N)cc2)nc2ccccc21	63	-0.05
O=C(O)c1ccccc1C(=O)OCc1ccc(F)cc1F	0.23	-0.25
CCc1cc(=O)oc2cc(O)ccc12	93	1.1
Cc1cc(C(F)(F)F)c2c(=O)n3[nH]c(C)cc3nc2n1	·	1.6
CS(=O)(=O)c1ccc2ccn(Oc3cc(C(F)(F)F)c(C(F)(F)F)cn3)c2c1	0.55	·
O=C(NCC1CCCO1)c1cccc(C(=O)NCC2CCCO2)c1 (centres undefined)	·	-0.15
O=C(O)c1ccccc1C(=O)c1ccc2c(c1)CCC2	0.12	-0.45
Cc1cc(=O)oc2cc(OCC(=O)N3CCCC3C(=O)O)ccc12 (centres undefined)	·	1.3
CC(Sc1nncn1C)C(=O)N(C)c1ccccc1 (centres undefined)	·	-0.75
CNC(=O)COc1ccccc1C(=O)Nc1ccccc1	·	2
CCCCN1C(=O)/C(=C\C(=O)NC(N)=O)c2ccccc21	·	0.3
COC(=O)CSCc1n[nH]c(=O)c2ccccc12	0.42	-0.8
CSc1sc(C(=O)NNC(=O)CC2Cc3ccccc3C2)c2c1C1(CCC2)SCCS1	-1.1	·
O=C(Nc1c2c(nn1-c1ccc(F)cc1)CS(=O)(=O)C2)c1ccc(S(=O)(=O)N2CCOCC2)cc1	-0.95	·
CCN(CC)S(=O)(=O)c1ccc(C(=O)Nc2c3c(nn2-c2ccc(C)cc2)CSC3)cc1	0.1	·
